Screening results deposited in PubChem BioAssay by Fisher Drug Discovery Resource Center.
NPYLR7 ag: agonists of mosquito NPYLR7 receptor, primary screen, cell-based, Aedes aegypti, calcium fluorescence, mosquito biting behavior; HEK293T NPYLR7/Galpha15, GCaMP6s calcium fluorescence; Aedes aegypti neuropeptide Y-like receptor 7 (NPYLR7); AID 1259423, 2018; actives 0.15% (n = 270,000); activation, % at 10 µM; in the data active = activation above about 40%;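 note: 0% = vehicle and 100% = reference agonist at the receptor; some compounds past the cut are filed as inactive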
NPYLR7 ag max-min: also measured in NPYLR7 ag; calls as there; activation, %; measured here: Max-Min RFU normalised activation; some inactives read as strong as hits;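 span of the calcium signal over five minutes; 0% = vehicle and 100% = native peptide agonist; compound fluorescence can raise it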
The depositor's hits bear a star. Some of the compounds tested (hit frequency here may not be typical).

canonical_smiles	NPYLR7 ag	NPYLR7 ag max-min
COc1cc(COC2CN(C(=O)c3ccc(C(C)=O)s3)CC(=O)N(C(C)C)C2)cc(OC)c1 (stereo unspecified)	6	-2
Cc1cc(C)cc(NC(=O)CC(=O)N[C@H]2CCCCNC2=O)c1	11	9
CCOC(=O)C1(Cc2ccc(Cl)cc2)CCN(C(=O)Nc2cc(C)ccc2OC)CC1	-3	3
COc1ccc(NC(=O)C2CC(=O)N(CCc3ccccc3)C(=Nc3ccc(Cl)cc3)S2)cc1 (stereo unspecified)	4	1
O=C(NCc1ccc2c(c1)OCO2)C1COC2(CCCCC2)N1C(=O)c1ccco1 (stereo unspecified)	31	36
NC(=O)C1CCN(C2CC(=O)N(c3ccccc3F)C2=O)CC1 (stereo unspecified)	5	2
CC(=O)N(c1nc(/C=C/C(=O)O)cs1)c1ccccc1F	-6	-6
COc1ccccc1NC(=O)C(NC(=O)OCc1ccccc1)SC(C)C (stereo unspecified)	-3	-2
O=C(Nc1cccc(Oc2ccccc2)c1)C1CC12c1ccccc1-c1ccccc12 (stereo unspecified)	4	2
COC(=O)c1ccc(NC(=O)Cn2c(-c3nnc(C)o3)cc3ccccc32)cc1	5	2
COc1ccccc1N1C(=O)C(Cl)=C(Nc2ccc(S(N)(=O)=O)cc2)C1=O	-1	-5
O=c1[nH]c(CNCc2ccco2)nc2scc(-c3ccccc3Cl)c12	17	16

Other records follow:
canonical_smiles	NPYLR7 ag	NPYLR7 ag max-min
CCCN(C(=O)/C=C/c1ccccc1)C(C)C(=O)Nc1ccccc1 (stereo unspecified)	-2	-3
CCOC(=O)CC1COCCN1C(=O)c1cc(-c2ccccc2)nn1C (stereo unspecified)	-7	-13
COc1cccc(Cc2nsc(N3CCC(C(=O)NC(C)CCc4ccccc4)CC3)n2)c1 (stereo unspecified)	-9	-3
CN(Cc1ccccc1)C(=O)CCC1CCN(C(=O)Nc2ccc3c(c2)OCO3)CC1	8	6
CN(Cc1ccccc1)C(=O)Nc1cc(S(C)(=O)=O)ccc1Cl	-3	-2
C=CCCC(=O)Nc1cccc(Br)c1C	3	3
Cc1ccc(-n2nc3c(c2NC(=O)CCC2CCCCC2)CS(=O)(=O)C3)c(C)c1	-1	-1
CCCCCNc1ncnc2c1nnn2CC	-2	7
COc1ccc(CCN(C)c2cc(C(C)(C)C)nc(SCc3ccc(C(=O)N4CCCC4)o3)n2)cc1OC	11	12
COCC(=O)N(Cc1ccco1)Cc1cc(NC(=O)NC(C)C)ccc1N(C)C	9	23
CC(=O)Nc1c(I)cc(I)c(C(=O)O)c1I	5	3
COc1ccc(OC)c(-c2cnc(-c3ccc(CNC(=O)c4cc(C)oc4C)cc3)[nH]2)c1	2	-6

Next section.
canonical_smiles	NPYLR7 ag	NPYLR7 ag max-min
CNC(=O)c1ccc(/C=C/C(=O)N2CCC(n3cncn3)CC2)cc1	14	10
CCS(=O)(=O)Oc1ccc(CN(C(=O)Nc2ccc(Cl)cc2)C(C)C)cc1	11	20
C=C(C)Cn1c(N/N=C\c2ccc(O)cc2O)nc2c1c(=O)n(C)c(=O)n2C	4	1
CCCCC1C=CCN1C(=O)c1cccnc1N1CCOCC1 (stereo unspecified)	-5	-6
O=C(C(c1ccccc1)c1ccccc1)N1CCCN(c2nc(Cc3ccc(Cl)cc3)ns2)CC1	-11	-15
C[C@H](c1cccc2ccccc12)N(C)C(=O)c1ccc(OCC(N)=O)cc1	15	6
Cc1cc(CO)c(C)n1-c1cccc2ccccc12	-11	-17
Cc1nc(NS(=O)(=O)c2ccccc2)sc1C(=O)NCc1c(F)cccc1F	15	8
O=C(c1ncccc1O)N1CCCC(N2CCOCC2)C1 (stereo unspecified)	3	1
O=C(c1cncnc1)N1CCC(Cc2nnc(CO)n2-c2ccccc2)CC1	1	-4
CC(C)(C)n1cc(C(=O)N2CCC(C(N)=O)CC2)c2cccnc21	-3	-4
CN(C)C1(CNc2nccc(C3CCCC3)n2)CCOCC1	7	5

Further results follow.
canonical_smiles	NPYLR7 ag	NPYLR7 ag max-min
O=C(CCN1CCN(Cc2ccc(Cl)s2)CC1)Nc1ccc(N2CCOCC2)cc1	18	14
COc1cc(OC)cc(C(=O)N2CCCN(c3nc(CC4CCCCC4)nc4c3c(C)nn4-c3ccc(F)cc3)CC2)c1	11	17
O=C(C1CN(C(=O)c2cc(C3CC3)nn2-c2ccccc2)c2ccccc2O1)N1CCCCC1 (stereo unspecified)	1	2
Cc1cc(C)cc(-c2nc3ccccn3c2NC(=O)C(Cl)Cl)c1	-4	0
COCCNC(=O)c1ccc(CSc2nnc(-c3cccs3)n2-c2cccc(C)c2)cc1	-16	-8
CCCc1[nH]n(-c2ccc(F)cc2)c(=O)c1C1=C(N(CC)CC)C(=O)N(CCOC)C1=O	-11	-5
C1=CCC(/C=N\N=C(/c2ccccc2)C23CN4CN(CN(C4)C2)C3)CC1 (stereo unspecified)	-13	-16
Cc1nc2c(c(N3CCCC3)n1)CCN(C(=O)c1cn3c(C)cccc3n1)C2	-8	-9
CC1CC(=O)Nc2c1c(NC(=O)CC(C)(C)C)nn2C (stereo unspecified)	-16	-19
OC(C1CCCN1Cc1cc(Cl)nc(Cl)c1)C(F)(F)F (stereo unspecified)	11	7
COc1ccc(C2SCC(=O)N2Cc2cn3ccccc3n2)cc1 (stereo unspecified)	-5	-8
O=C(Nc1ccc(-n2cnnn2)cc1)C1(c2cccc(C(F)(F)F)c2)CCCC1	6	5

Continuation:
canonical_smiles	NPYLR7 ag	NPYLR7 ag max-min
CCN(CC)S(=O)(=O)c1ccc(OC)c(N2CCN(C(=O)Cc3cccs3)CC2)c1	26	21
CC(=O)Nc1ccc(S(=O)(=O)N2CCN(c3nc(C)nc(C)c3Cc3cccc(C)c3)CC2)cc1	14	24
COc1ccc(CCNC(=O)CN2CCCC3(CNC(=O)O3)C2)cc1 (stereo unspecified)	5	3
Cc1cc(C(=O)CSc2nnc(N)s2)c(C)n1C1CC1	1	2
CCCCCn1cc(C2CCN(C(=O)c3cc4ccccc4s3)CC2)c2ccccc21	1	4
COc1ccc2cc(C3CN(Cc4cc5n(n4)CCNC5)CCO3)ccc2c1 (stereo unspecified)	-2	-2
Cc1ccccc1CN1CCN(c2nc3c(c(=O)[nH]c(=O)n3C)n2CC(C)C)CC1	2	8
CCCCCc1ccc(C(=O)CSc2nnc(NC(=O)C(C)C)s2)cc1	-2	5
Cn1nnc(NC(=S)NC(=O)c2ccc(C(C)(C)C)cc2)n1	-1	-3
COCCN(CC(=O)N(Cc1cccn1Cc1ccc(F)cc1)C1CCCCC1)C(=O)c1cccc([N+](=O)[O-])c1	10	14
COc1ccccc1Oc1cc(C#N)c(C#N)cc1-n1nnc2ccccc21	-3	17
Cc1cccc(-n2c(SCCO)nc3ccccc3c2=O)c1C	1	1

Later entries:
canonical_smiles	NPYLR7 ag	NPYLR7 ag max-min
CCSc1nc(N2CCOCC2)c2cnn(CCN)c2n1	-2	-5
CCOCCCN(CC(=O)N1CCc2sccc2C1c1ccccc1)S(=O)(=O)c1cc(Cl)ccc1Cl (stereo unspecified)	11	22
CN1CCCN(CC(=O)N(C/C=C/c2ccccc2)C2CC2)CC1	-3	-5
CC(C)N(CC(=O)N1CCc2sccc2C1c1ccc(Cl)cc1)C(=O)N(C)C (stereo unspecified)	-8	-8
COc1cn(CC(=O)NCc2ccc(C)cc2)c(CN2CCN(c3ccccc3)CC2)cc1=O	2	2
Brc1ccc(-c2cnc(Cn3ccnc3)o2)cc1	0	4
CCNC(=S)N(Cc1ccco1)C1CC(=O)N(c2ccc(F)cc2)C1=O (stereo unspecified)	-3	-4
O=C1OC2(C(=O)c3ccccc3C2=O)C(=C(O)c2cccc(Br)c2)C1=O	2	2
Cc1nn(C)c(C)c1CC(C)NC(=O)N1CC(C)c2ccccc21 (stereo unspecified)	-15	-16
Cc1cccc(-n2nc(C(=O)NCc3ccccn3)c(=O)n(Cc3cccc(C(F)(F)F)c3)c2=O)c1	10	7
CCOC(=O)c1ccccc1NC(=O)N1CCC(Cc2ccc(C(N)=O)cc2)CC1	-1	4
O=C1CC(c2ccccc2)N(C(=O)C2CC2c2ccc(F)cc2)CCN1 (stereo unspecified)	8	7

6 compounds picked at random from those above, as already listed:
canonical_smiles	NPYLR7 ag	NPYLR7 ag max-min
CCOC(=O)c1ccccc1NC(=O)N1CCC(Cc2ccc(C(N)=O)cc2)CC1	-1	4
CC(C)N(CC(=O)N1CCc2sccc2C1c1ccc(Cl)cc1)C(=O)N(C)C (stereo unspecified)	-8	-8
O=C1CC(c2ccccc2)N(C(=O)C2CC2c2ccc(F)cc2)CCN1 (stereo unspecified)	8	7
Cc1cccc(-n2nc(C(=O)NCc3ccccn3)c(=O)n(Cc3cccc(C(F)(F)F)c3)c2=O)c1	10	7
CCOCCCN(CC(=O)N1CCc2sccc2C1c1ccccc1)S(=O)(=O)c1cc(Cl)ccc1Cl (stereo unspecified)	11	22
CCNC(=S)N(Cc1ccco1)C1CC(=O)N(c2ccc(F)cc2)C1=O (stereo unspecified)	-3	-4

(list continues)
canonical_smiles	NPYLR7 ag	NPYLR7 ag max-min
COc1ccc(N2CCN(c3cc(C)nc(SCc4ccc(C(=O)NCc5ccncc5)o4)n3)CC2)cc1	1	1
CC1=NN(C)c2nc3c(c(=O)n(Cc4cccc5ccccc45)c(=O)n3C)n2C1C (stereo unspecified)	5	2
CCOC(=O)c1sc(=S)n(-c2ccccc2)c1N	1	-6
COc1ccccc1NC(=O)c1ccc(CSc2ccc3ccccc3n2)cc1	0	-3
Cc1nnc(Sc2nc3c(c(=O)[nH]c(=O)n3C)n2CCCc2ccccc2)s1	1	-3
CCC1CN(C(=O)NCC2(c3ccccc3)CC2)CCO1 (stereo unspecified)	2	-3
COCc1cc(C)nc(OCC(=O)N/N=C\c2ccc(-c3cc([N+](=O)[O-])ccc3Cl)o2)c1C#N	-9	-17
CCCN(CCc1c[nH]c2ccc(NC(=O)c3cc(F)cc(F)c3)cc12)CC1CC1	7	0
COc1ccc(N2C(=O)CSC2c2cccc(NS(=O)(=O)c3cccc4cccnc34)c2)cc1 (stereo unspecified)	22	30
CCn1cncc1CNC(=O)C(C)N1C(=O)c2cccc3cccc1c23 (stereo unspecified)	19	9
COCC(C)NCCn1[nH]c(=O)ccc1=O (stereo unspecified)	12	9
Cc1nc2cc(NS(=O)(=O)c3cccc4cccnc34)ccc2s1	-1	4

Next part
canonical_smiles	NPYLR7 ag	NPYLR7 ag max-min
Cc1ccc(NC(=O)c2cnn(-c3ccc(-c4nc(C5CC5)no4)cn3)c2C)cc1	-9	-10
COCCN(CCC(=O)NCCCN1CCCCC1C)c1nc(Cc2cccc(OC)c2)ns1 (stereo unspecified)	25	32
CC(=O)N(Cc1ncc(C)o1)C1CCN(CCc2cnn(C)c2)C1 (stereo unspecified)	1	13
CN1C[C@H](NC(=O)c2ccc3cccc(Cl)c3n2)C[C@H]1CO	11	7
CN1CCCC(N2CCN(CCCCCCO)CC2)C1 (stereo unspecified)	2	1
COc1ccc(OC)c2[nH]c(=O)c(CCNC(=S)NCCn3ccc4ccccc43)cc12	0	37
COC(=O)c1cccc(-c2cc(Cl)c3c(c2)CC(CNC(=O)CSc2ncccn2)O3)c1 (stereo unspecified)	1	-3
CCCn1cc(NC(=S)NC2CC3CCC2C3)ccc1=O (stereo unspecified)	9	8
Cc1ccc(NC(=O)C(C)Cn2nc(C)nc2C)cc1 (stereo unspecified)	2	11
CCc1nc(C#N)c(N2CCOCC2)o1	9	4
CC(=O)N1CCC(N(C)Cc2nncn2C(C)C)CC1	4	2
COc1ccc(C(=O)N2CCCC(OCc3cccc(Cl)c3)C2)cc1 (stereo unspecified)	-7	-1

(continued)
canonical_smiles	NPYLR7 ag	NPYLR7 ag max-min
CCc1ncc(C(=O)NCc2cccc(N3CCCCC3=O)c2)s1	4	5
CCOC(=O)C1(C)CCCCN1C(=O)c1cccc(F)c1 (stereo unspecified)	3	1
CCc1cc(C(=O)NCc2c(C)ncc3c2CCN(C(=O)/C=C/c2cccc(F)c2)C3)n(C)n1	28	7
CCOc1ccc(C(=O)Nn2cnc3c(cnn3C(C)(C)C)c2=O)cc1	7	5
CC(C)C(NC(=O)Cn1c(=O)c(C#N)c2n(c1=O)CCC2)c1ccc2c(c1)OCCCO2 (stereo unspecified)	4	3
CSc1ccccc1CNC(=O)C1(C)CCCN1CC(C)C (stereo unspecified)	4	1
CCc1nc(C)cc(N2CCN(Cc3cccc(C)c3)C(=O)C2)n1	10	11
O=C(c1cc2n(n1)CCN(Cc1ccccc1F)C2=O)N1CCN(c2cccc(C(F)(F)F)c2)CC1	8	9
O=C(c1cccc2cc[nH]c12)N1CCN(Cc2cccc(-c3noc(-c4cccc(Cl)c4)n3)c2)CC1	25	16
Cc1ccc(C(=O)Nc2ccc(SCC(=O)N3CCCC3)nn2)cc1	6	6
O=C(NCCCc1nc2ccccc2[nH]1)C12CC3CC(CC(C3)C1)C2	0	6
CC(C)(C)c1ccc(-c2nc(Cc3c(F)cccc3Cl)no2)cc1	-9	-18

Continued:
canonical_smiles	NPYLR7 ag	NPYLR7 ag max-min
N#Cc1c(N)c(C(=O)c2ccccc2)n2ccccc12	-5	-11
Cc1nc(Nc2ccc(O)cc2)c2cc(-c3ccccc3)sc2n1	-15	-22
Cc1cc(Cl)ccc1NCC(=O)Nc1cccc(F)c1	0	0
Cc1cc2ncc(C#N)c(NC(=O)c3scnc3C)n2n1	1	-5
COC(=O)CCC(=O)N1CCN2CCNC(=O)C2C1 (stereo unspecified)	3	-1
Cc1ccc(NC(=O)C2(C)CCN2C(=O)Cc2ccccc2)cc1C (stereo unspecified)	-3	-4
CCOC(=O)N1CCN(C(=O)c2ccc(N3CCC(NCc4cccs4)CC3)cc2)CC1	0	-4

Entries of single compounds from above. Order of screens: NPYLR7 ag, NPYLR7 ag max-min
Cc1ccc(NC(=O)C2(C)CCN2C(=O)Cc2ccccc2)cc1C (stereo unspecified) is listed with -3, -4
N#Cc1c(N)c(C(=O)c2ccccc2)n2ccccc12 is listed with -5, -11
